Source: PubChem
VACV mCherry inh: inhibitors of vaccinia virus infection (mCherry reporter signal); Vaccinia virus mCherry reporter infection, fluorescence; about a quarter of the inactives have no number; Potency, µM (top dose mostly 36.5 µM), for the others: at the highest dose activity change, negative = inhibition, hits mostly inhibitors; 310,000 compounds, 0.63% hits; AID 720579; active = well fitted inhibition curve with a large enough effect; inconclusive = small, poorly fitted or top-dose-only effect; inactive = no such curve, though single readings can be large or run the other way; tested in A549 cells; further: nearly all actives have a fitted effect of over 35% in size; inactives centre near -10
Vaccinia Venus: vaccinia inhibition (Venus reporter); 330,000 compounds, 0.46% hits; Potency, µM (series often up to 36.5 µM), without a hit: at the top dose activity change, negative = inhibition, hits mostly inhibitors; Vaccinia virus Venus reporter expression, fluorescence; active means well fitted inhibition curve with a large enough effect; inconclusive means small, poorly fitted or top-dose-only effect; inactive means no such curve, though single readings can be large or run the other way; tested in A549 cells; further: nearly all actives have a fitted effect of over 30% in size; inactives centre near -10
Starred values were filed as active, the others as inactive; i = inactive; ? = inconclusive; · = no result given; & = joins results of further samples; [ ] = another dose, or the depositor's remark. On the % scale 0 is the no-effect control and ±100 the full control effect; potency means the concentration at half of the fitted maximal effect.

SMILES	VACV mCherry inh	Vaccinia Venus
CC(C)Cc1nnc(NC(=O)c2cc(S(=O)(=O)N(C)C)ccc2N2CCCC2)s1	i	-15.6%
COc1ccccc1OCCNc1cc(N2CCCCC2)ccc1[N+](=O)[O-]	-27.4%	-23.5%
CCN1CCN(c2csc3ccc(C)cc3c2=O)CC1	-18.7%	-21.4%
Cn1nnnc1SCc1nc2scc(-c3ccc(Cl)cc3)c2c(=O)[nH]1	i	-7.8%
Cc1nc(CN(C)C(=O)c2ccccc2OC2CCN(S(C)(=O)=O)CC2)cs1	-1.9%	3.1%
CSc1ccc(C2C3(C#N)C(N)=NC4(OCCO4)C23C#N)cc1 (centres undefined)	·	8.8%
COCCNC(=O)c1cccc(NC(=O)C2=C(C)OCCS2)c1	-4.7%	-16.5%
O=S(=O)(c1ccc(N2CCOCC2)c(Cl)c1)N1CCOCC1	0.2%	-15.3%
COc1ccc(CC(=O)Nc2ncc([N+](=O)[O-])s2)cc1OC	i	-4.6%
Cc1cc(C)c2c(-n3cccc3)c(C(=O)NCCCN3CCCCC3)sc2n1	-12.8%	-3.0%
CC(C)=NOc1nc(NC(=O)NS(=O)(=O)c2ccccc2Cl)nc(N(C)C)n1	i	-6.1%
C=C1NN(C(C)C(=O)O)C(=O)N1c1ccc(OCc2ccccc2)cc1 (centres undefined)	-18.3%	-7.7%
Cc1nn(CC(=O)N(C)Cc2ccc(F)cc2)c(C)c1[N+](=O)[O-]	i	-18.4%
COC(=O)C1=CN(CC2CCCO2)C=C(C(=O)OC)C1c1ccccc1C(F)(F)F (centres undefined)	i	-8.3%
CC1CCN(C(=O)COc2cccc3c2CCN(C)C3=O)CC1	4.7%	-3.9%
CN1CCc2nc3ccc(Cl)cc3c(-c3ccccc3Cl)c2C1	-27.3%	-19.2%
C/C(=N\N1CCCCCC1)c1c(O)n(-c2ccc(Cl)cc2)c(=O)[nH]c1=O	i	-8.7%
Cc1nn(CC(=O)N2CCN(c3ccccc3)CC2)c(=O)c2cccn12	-14.2%&-1.5%	-0.1%&-5.1%
COc1ccc(C(=O)N2CCCC(CCC(=O)NCc3ccc(F)c(F)c3)C2)o1 (centres undefined)	i	-1.2%
O=C1CCN(Cc2ccccc2)CCN1[C@H](CO)Cc1ccccc1	-0.9%&-14.4%	-11.7%&-17.9%&-12.5%
CCOC(=O)N1CCN(C(=O)C2CCC(CNS(=O)(=O)c3ccc(Cl)cc3)CC2)CC1 (centres undefined)	·	1.9%
Cc1cccnc1C(NC(=O)C1CCN(Cc2ccccc2)CC1)c1ccc(F)cc1 (centres undefined)	i	-8.4%
O=C(O)/C=C/C(=O)NCCNc1ncc(C(F)(F)F)cc1Cl	-9.6%	-18.9%
COc1cccc(C(=O)NCCS(=O)(=O)NCc2ccccn2)c1	i	-13.6%
CCC(=O)N1CCc2cc(S(=O)(=O)CCC(=O)Nc3cc(Cl)ccc3OC)ccc21	1.9%	9.1%
CC1=C(c2ccc(F)cc2)[N+](=O)C(C)(C)N1[O-]	11.2%	-5.8%
CC(=O)CC1N(S(=O)(=O)c2ccc(C)cc2)c2ccccc2N1S(=O)(=O)c1ccc(C)cc1	-23.5%	6.6%
O=C(c1ccc2c(=O)n(Cc3ccco3)c(=S)[nH]c2c1)N1CCCC1	-15.6%	-18.5%
O=S(=O)(Nc1ccc(C(O)(C(F)(F)F)C(F)(F)F)cc1)c1ccc(Cl)c2nonc12	i	48.6%[activator]
CC(C)n1c(CSCc2ccc(Cl)cc2Cl)n[nH]c1=S	?	?

Rewritten field by field: 4 of the compounds above.
COc1cccc(C(=O)NCCS(=O)(=O)NCc2ccccn2)c1
  VACV mCherry inh: i | Vaccinia Venus: -13.6%

CC(C)n1c(CSCc2ccc(Cl)cc2Cl)n[nH]c1=S
  VACV mCherry inh: ? | Vaccinia Venus: ?

C/C(=N\N1CCCCCC1)c1c(O)n(-c2ccc(Cl)cc2)c(=O)[nH]c1=O
  VACV mCherry inh: i | Vaccinia Venus: -8.7%

CC1=C(c2ccc(F)cc2)[N+](=O)C(C)(C)N1[O-]
  VACV mCherry inh: 11.2% | Vaccinia Venus: -5.8%

The results go on:
SMILES	VACV mCherry inh	Vaccinia Venus
COc1cccc2c1CCC1CC(=O)CC[C@@]21C (some centres undefined)	-2.5%	-4.5%
COc1ccc(C(=S)N2CCN(c3ccccc3Cl)CC2)cc1OC	-15.8%	-17.0%
Cn1c(=O)c2c(-c3ccccc3)n(-c3ccc(N)cc3)cc2n(C)c1=O	34.0%[activator]	-1.3%
O=C(CC12CC3CC(CC(C3)C1)C2)NCC(=O)OCc1cc(=O)oc2ccc3ccccc3c12	i	-6.4%
Cc1nc2sc(C(c3ccco3)N3CCN(c4ccc(F)cc4)CC3)c(O)n2n1 (centres undefined)	-2.5%	-16.9%
CCOc1ccccc1CNc1ccc2cc(S(=O)(=O)N3CCC(C)CC3)ccc2n1	-28.0%	-20.1%
COC(=O)C[C@H]1C=C[C@H](NC(=O)c2ccc(F)cc2)[C@@H](CO)O1	-5.2%	-7.7%
Cn1c(CCNC(=O)c2ccccc2)nc2ccccc21	i	-10.4%
COCCCN(C(=S)NC(=O)c1ccc(Br)cc1)c1c(N)n(Cc2ccccc2)c(=O)[nH]c1=O	-11.2%	4.8%
O=C(NC1CCCC1)c1ccccc1-c1nc2ccccc2[nH]1	·	0.4%
O=C(c1cccc(-n2cccc2)c1)N1CCN(S(=O)(=O)c2ccc(F)cc2)CC1	-4.3%	-25.7%
COc1cccc(-c2ccc3nnc(SCC(=O)N4CCCC4)n3n2)c1	-17.6%	-19.0%
CC(C)NS(=O)(=O)c1ccc2nc(NC(=O)c3cncc(Br)c3)sc2c1	-5.4%	-9.9%
Cc1ccccc1-n1c(C)nnc1SCc1nc2ccccc2s1	i	-5.5%
CC(=O)n1cc(CO)c2ccccc21	-9.3%	0.6%
COc1cc(OC)cc(-c2cn[nH]c2N)c1	?	-9.3%
CCCN1C(=O)c2cc(C(=O)O)ccc2C1O (centres undefined)	9.7%	2.4%
O=C(/C=C\Nc1ccc2c(c1)OCO2)c1ccc(Cl)s1	i	-10.8%
CN(Cc1ccccc1)c1ccc(S(=O)(=O)N2CCOCC2)cn1	i	-6.5%
CC(CN1CCCCC1)OC(=O)C1c2ccccc2Oc2ccccc21 (centres undefined)	-6.3%	-9.5%
O=S(=O)(c1ccccc1)c1nc(-c2ccco2)oc1NCc1ccco1	·	-16.9%
C[n+]1cc[nH]c1SCC(=O)c1ccc(Cl)cc1	-14.5%	-10.1%
CCS(=O)(=O)Nc1cccc(C2=NN(S(=O)(=O)c3ccc(F)cc3)C(c3cccs3)C2)c1 (centres undefined)	-5.1%	-23.0%
COc1cccc2sc(N3CCN(C(=O)CS(=O)(=O)c4ccc(Cl)cc4)CC3)nc12	-11.6%	-9.3%
Cc1nc(NC(=O)C(C)Oc2cccc(Cl)c2)sc1C(=O)N(C)C (centres undefined)	-20.2%	-2.2%
O=C(CCNC(=O)c1ccco1)Nc1ccccc1	i	-14.1%
C=CCNC1=C(Cl)C(=O)N(Cc2ccccc2)C1=O	i	-2.2%
O=C(O)c1cc(S(=O)(=O)N2CCN(c3ccccn3)CC2)ccc1Cl	-11.2%	4.2%
COc1ccc(CN(C2CC2)S(=O)(=O)c2ccccc2Br)cc1	-10.9%	-23.7%
CCCC(=O)N1CC(=O)Nc2ccc(C)cc2C1c1ccccc1 (centres undefined)	-5.9%	-10.0%

In a second layout: results already given
mol | VACV mCherry inh | Vaccinia Venus
Cc1ccccc1-n1c(C)nnc1SCc1nc2ccccc2s1 | i | -5.5%
CC(=O)n1cc(CO)c2ccccc21 | -9.3% | 0.6%
COc1cc(OC)cc(-c2cn[nH]c2N)c1 | ? | -9.3%

Profiles from above:
Shown for `O=S(=O)(c1ccccc1)c1nc(-c2ccco2)oc1NCc1ccco1` → VACV mCherry inh = ·; Vaccinia Venus = -16.9%
Shown for `O=C(/C=C\Nc1ccc2c(c1)OCO2)c1ccc(Cl)s1` → VACV mCherry inh = i; Vaccinia Venus = -10.8%

The list goes on:
SMILES	VACV mCherry inh	Vaccinia Venus
Cc1ccc(S(=O)(=O)Nc2cccc3c2O[C@H](CN(C)Cc2ccccc2)[C@@H](C)CN([C@H](C)CO)C3=O)cc1	-5.9%	-21.7%
CCc1cccc(C)c1NC(=O)C(C)Sc1nc2c(c(=O)[nH]1)CCCC2 (centres undefined)	7.7%	-2.0%
CCc1cc2ccc(OC)cc2nc1SCC(=O)Nc1cc(C)on1	·	13.1%
O=C(Nc1c(-c2ccccc2)[nH][nH]c1=O)c1ccco1	4.4%	-11.8%
CCCCCCn1c(=O)n2n(c1=O)[C@@H]1CN(S(=O)(=O)c3ccc(C)cc3)C[C@]1(O)[C@@H](OC(=O)NC1CC1)C2	?	-23.7%
O=C(Cc1cccs1)Nc1nc2c(ccc3ccccc32)s1	-20.1%[1.46 µM]	?
CCOc1ccc(C(=O)N(c2ccccn2)C2CCCCC2)cc1	-14.0%	?
CN(C)C1(CNC(=O)C2CCN(S(=O)(=O)c3ccccc3C(F)(F)F)CC2)CCCCC1	-15.2%	-6.2%
Cc1ccc2c3c(c(SCC(=O)Nc4nonc4C)nc2c1)CCCC3	-7.9%	-5.5%
CC1CN(c2sc(S(C)(=O)=O)nc2S(=O)(=O)c2ccc(Cl)cc2)CC(C)O1 (centres undefined)	-4.5%[7.34 µM]	-0.4%[7.34 µM]
Cc1ccccc1N1CC(=O)N(c2ccccc2C)CC1=O	-13.8%	-5.9%
COc1ccc(OC)c(CNC(=O)CCCc2cn(C)c3ccccc23)c1	11.3%	-11.5%
Cc1ccc(S(=O)(=O)N(C)c2ccc(OCC(=O)N3CCCCC3)cc2)cc1	-14.7%	-14.8%
COc1ccc(C(=O)/C=C/Nc2ccc(S(=O)(=O)Nc3onc(C)c3C)cc2)cc1	-6.8%	-1.4%
CC1CC(NC(=O)N(C)C)N(C)C(=O)N1 (centres undefined)	-7.8%	-5.5%

4 of these compounds, reformatted.
Value order: VACV mCherry inh	Vaccinia Venus
> Cc1ccccc1N1CC(=O)N(c2ccccc2C)CC1=O
 : -13.8%	-5.9%
> COc1ccc(OC)c(CNC(=O)CCCc2cn(C)c3ccccc23)c1
 : 11.3%	-11.5%
> Cc1ccc(S(=O)(=O)N(C)c2ccc(OCC(=O)N3CCCCC3)cc2)cc1
 : -14.7%	-14.8%
> COc1ccc(C(=O)/C=C/Nc2ccc(S(=O)(=O)Nc3onc(C)c3C)cc2)cc1
 : -6.8%	-1.4%

(list continues)
SMILES	VACV mCherry inh	Vaccinia Venus
COc1ccc(Cl)cc1C(=O)NNC(=O)c1cccs1	-10.3%	-9.1%
O=c1c2ccccc2nc(Cc2ccccc2)n1-c1ccccc1O	-13.2%	3.8%
O=C1CC(c2cccnc2)=NN1c1ccc(Cl)cc1Cl	i	1.0%
COc1ccc(CN2CCCC(c3nc(-c4ccncc4)ncc3-c3ccccc3)C2)c(OC)c1OC (centres undefined)	-9.3%	8.5%
COc1ccc(-c2nc(CSCC(=O)N3CCN(c4ccccc4)CC3)c(C)o2)cc1	?	?
O=C1NC[C@H](Cc2ccccc2)N(C[C@@H]2CCCN2C[C@H](Cc2ccccc2)N2C[C@H](Cc3ccccc3)N(CCc3ccccc3)C(=O)C2=O)C1=O	-6.5%	-16.1%
NS(=O)(=O)c1ccc(NC(=O)c2cc(-c3cc(Cl)ccc3O)n[nH]2)cc1	-15.4%	-10.9%
CCN(C(=O)COc1ccc(C)cc1OC)c1cccc2ccccc12	i	2.3%
COc1ccc(C(=O)NCC(c2ccco2)N2CCc3ccccc32)cc1OC (centres undefined)	-12.1%	-28.6%
CN(C(=O)COC(=O)c1ccc2c(c1)OCCO2)C1CCCCC1	-14.4%	-5.3%
COCCn1c(C)cc2c(c1=O)C(c1ccccc1F)C(C#N)=C(N)O2 (centres undefined)	-15.5%	3.1%
COC(=O)c1ccc(NC(=O)Cn2nnc3ccccc32)cc1	·	5.2%
CCc1cnc2c(c1SCC(=O)c1ccc(OC)cc1)c(=O)n(C)c(=O)n2C	-24.4%	-15.7%
O=C(NNCc1ccccc1)c1ccccc1	-2.9%	-0.5%
Cc1noc(-c2ccccc2)c1NC(=O)Nc1ccc(Cl)cc1	i[7.34 µM]	-2.9%[7.34 µM]
CN1CCN(c2ccc(NC(=O)COc3cccc4ccccc34)cc2)CC1	?	3.5%
